# VDR inh = inhibitors of human vitamin D receptor; P11473; VDR-SRC2-3 peptide fluorescence polarization, 2 h; AID 504847; Potency, µM, inactives show max response, negative = inhibition, actives largely listed as inhibitors; hit rate 0.93% among 400,000; active = well fitted inhibition curve with a large enough effect; inconclusive = small, poorly fitted or top-dose-only effect, or another doubt; inactive = no such curve, though single readings can be large or run the other way; note: series mostly up to about 120 µM
# Target sequence (P11473 whole entry, looked up): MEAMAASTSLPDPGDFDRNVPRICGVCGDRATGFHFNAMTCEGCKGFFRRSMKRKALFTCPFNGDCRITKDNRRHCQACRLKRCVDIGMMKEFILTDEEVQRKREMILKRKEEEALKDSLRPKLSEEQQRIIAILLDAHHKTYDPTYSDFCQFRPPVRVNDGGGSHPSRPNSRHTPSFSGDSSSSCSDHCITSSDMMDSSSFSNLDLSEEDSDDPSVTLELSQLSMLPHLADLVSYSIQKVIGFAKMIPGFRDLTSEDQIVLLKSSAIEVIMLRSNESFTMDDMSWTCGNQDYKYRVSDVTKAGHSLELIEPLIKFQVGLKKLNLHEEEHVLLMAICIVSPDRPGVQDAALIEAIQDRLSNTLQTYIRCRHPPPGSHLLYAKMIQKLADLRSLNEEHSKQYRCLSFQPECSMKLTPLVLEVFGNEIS
#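 Signal is fluorescence polarization, reporting how far test compounds block the interaction of VDR with the SRC2-3 coregulator peptide after a 2 h room-temperature incubation.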
# Active calls of the source: *; ? = inconclusive; & = joins results of further samples; [ ] = remark or other dose. % is set by controls: 0 for no effect and ±100 for the full control effect; potency is the fitted concentration of half-maximal effect. Only part of the results is shown (hit frequency here may not be typical).
VDR inh | compound
2% | O=C(Cc1cccs1)NC1CC(=O)N(c2ccc(Cl)cc2)C1 (stereo not drawn)
? | COc1cccc(-c2nccc(NCc3cccs3)n2)c1
-17% | O=C(NCc1ccco1)c1ccc(-c2csnn2)cc1
-6% | CC(CN1CCCCC1)OC(=O)/C=C/c1ccccc1 (stereo not drawn)
17% | CCCC(=O)Nc1cccc(-c2cn3c(C)csc3n2)c1
-5% | CC(C)(C)OC(=O)NOCC(=O)N(CC(=O)c1ccccc1)Cc1ccccc1
-12% | C#Cc1ccc([C@H]2C=C(C(=O)O)O[C@@H](OCc3ccc(CO)cc3)C2)cc1
11% | c1ccc(CSc2ccc(-c3ccccn3)nn2)cc1
4% | Cc1cc(/C=N/n2cnnc2)c(C)n1-c1ccccc1
-2% | Cc1cc(C)c2c(c1)/C(=N/NC(=O)c1ccc(O)cc1)CCC2
5% | c1ccc(OCCN2C3=NCCN3c3ccccc32)cc1
8% | Cn1nccc1C(=O)Nc1sc2c(c1C#N)CCCC2
0% | Cc1ccc2c(c1)NC(=O)C(CC(=O)N(C)Cc1ccccc1)O2 (stereo not drawn)
20% | CC(=O)NC1(c2cccc(F)c2)CCN(CC(=O)NC(C)C)CC1
-5% | Cc1nc2nc(SCC(=O)NCCc3ccc(Cl)cc3)nn2c(C)c1Cc1ccccc1Cl

# Later entries
VDR inh | compound
-20% | O=C1/C(=C/c2ccc(F)cc2)SC(=S)N1NS(=O)(=O)c1ccccc1
-1%&-16% | COc1ccccc1CCNC(=O)CNC(=O)Cc1cccc2ccccc12
4% | O=[N+]([O-])c1ccc(-c2csc(Nc3ccccc3)n2)cc1
9% | C#CCOCCOCCOCCNc1nc(N2CCN(C(=O)CCCCCCCCCCNC(=O)[C@H](CCCCN)n3cc(CCO)nn3)CC2)nc(N2CCN(C(=O)CCCCCCCCCCNC(=O)[C@H](CCCCN)n3cc(CCO)nn3)CC2)n1
-7% | COc1ccc(N(CC(=O)Nc2ccc3c(c2)OCCO3)S(C)(=O)=O)c(OC)c1
-13% | CN(C)c1ccc(/C=N/NC(=O)c2ccccc2Cl)cc1
8% | O=C(O)CC1(CC(=O)NCc2ccc(F)cc2)CCCCC1
-2% | CCCn1c(Sc2nc3c(c(=O)[nH]c(=O)n3C)n2CCC)nc2c1c(=O)[nH]c(=O)n2C
12% | Cc1cc2cc(CNC(=S)NC3CCCCC3)ccc2[nH]1
-19% | O=C(C[C@H]1C[C@H](C(=O)N2CCCCC2)[C@@]2(CCc3ccccc3)c3[nH]c4ccc(Cl)cc4c3CCN2C1=O)NCc1ccco1
11% | O=C(c1cc(S(=O)(=O)N2CCC3(CC2)OCCO3)ccc1F)N1CCCCC1
? | COc1ccc(OCC(=O)Nc2ccc3c(c2)nc(CCN2CCN(C)CC2)n3C)cc1
9% | Cc1ccc(C(=O)Nc2nnc(S(=O)(=O)N(C)Cc3ccc(Cl)cc3)s2)cc1
-15% | COc1cc2c(cc1CNC[C@H]1O[C@@H](n3cnc(C(N)=O)n3)[C@H](O)[C@@H]1O)OCO2
15% | O=S(=O)(c1ccc2ccccc2c1)N1C=CC(C(F)(F)F)=NCC1

# (list continues)
VDR inh | compound
-3% | CC(=O)Nc1c(O)nc(SC/C=C/CSc2nc(O)c(NC(C)=O)c(=O)[nH]2)[nH]c1=O
4% | Cc1ccc(-c2n[nH]c(Cc3ccccc3)n2)cc1
12% | Cc1cnc([N+](=O)[O-])n1CCOC(=O)NC(=O)c1c(F)cccc1F
-13% | CCOC(=O)Cc1c(C)nc2c(-c3ccc(Cl)cc3)cnn2c1C
1% | CC(/C=N/n1cnnc1)=C\c1ccccc1
6% | c1ccc2c(c1)c1cccc3ccc4cccc2c4c31
-9% | COc1ccccc1NC(=O)CSc1nnc2ccc(-c3ccccn3)nn12
22% | CCCn1c(C2CCCN2c2nc(-c3cccc(Br)c3)cs2)nc2ccccc21 (stereo not drawn)
12% | COc1ccccc1-n1c(SCC(=O)N2CCOCC2)nc2cccnc21
-24% | CSc1nccc(-c2sc(SC)c(C#N)c2-c2ccccc2)n1
-19% | CCCN1C(=O)/C(=C/c2ccc(N3CCOCC3)cc2)NC1=S
4% | COC(=O)c1ccc(NC(=S)Nc2ccc(O)cc2)cc1
-11% | S=C1NCCOCCOCCNC(=S)N2CCOCCOCCN1CCOCCOCC2
3% | C[C@@H](C(=O)Nc1ccc2ccccc2c1)[C@@H]1C[C@@]1(C)[C@@H](NC(=O)OCc1ccccc1)c1ccccc1
0% | Cc1cc(OCC(=O)NCCCN2CCOCC2)cc(C)c1Cl

# Further results:
VDR inh | compound
10% | Cc1ccc(NS(=O)(=O)c2ccc(-c3cnc(C4CC4)o3)cc2)c(C)c1
-10% | O=C(Nc1ccc(OC(F)(F)F)cc1)C1CCN(S(=O)(=O)c2ccc3[nH]c(=O)ccc3c2)CC1
0% | Cc1cccc(Nc2nnc(SCC(=O)NCC3CCCO3)s2)c1C (stereo not drawn)
-5% | COC(=O)CNC(c1ccccc1)c1cc(Br)ccc1NC(=O)c1ccc(Cl)cc1 (stereo not drawn)
? | C=C1C(CCl)(CCl)C2(Cl)C(Cl)C(Cl)C1(Cl)C2(Cl)Cl (stereo not drawn)
-8% | COc1cccc(NC(=O)c2ccc(N3C(=O)C4CC=CCC4C3=O)cc2)c1 (stereo not drawn)
-3% | Cc1ccc(S(=O)(=O)NCCSc2nnnn2-c2ccc(Cl)c(C(=O)O)c2)cc1
10% | Cc1ccc(OCC(=O)Nc2ccccc2C(=O)OCc2cc(=O)n3ccsc3n2)cc1
2% | CCCCN1C(=O)C(NC(=O)CC(C)C)(C(F)(F)F)C2=C1CC(C)(C)CC2=O (stereo not drawn)
-4% | Cc1ccc(NC(=O)CNC(=O)Cn2cnc3sc(C)c(C)c3c2=O)cc1F
8% | O=C(NCc1ccccc1)c1cccnc1N1CCOCC1
6% | O=C(N/N=C/c1cccc2nccnc12)c1ccccc1O
-8% | O=C(NCCN1CCOCC1)c1cc2ccccc2o1
-1% | COc1ccc(CCNC(=O)COC(=O)c2ccc(F)c(S(=O)(=O)N3CCOCC3)c2)cc1
-9% | O=C(CSc1ccccc1)NCC1(N2CCOCC2)CCCCC1

# Retrieved by structure from above:
VDR inh | compound
-19% | O=C(C[C@H]1C[C@H](C(=O)N2CCCCC2)[C@@]2(CCc3ccccc3)c3[nH]c4ccc(Cl)cc4c3CCN2C1=O)NCc1ccco1
20% | CC(=O)NC1(c2cccc(F)c2)CCN(CC(=O)NC(C)C)CC1

# (next part)
VDR inh | compound
-14% | COc1cc2c(=O)n(Cc3ccco3)c(=O)n(CC(=O)Nc3ccc(F)cc3)c2cc1OC
13% | CCCc1c(O)nc(SCC(=O)NCc2ccco2)[nH]c1=O
15% | Cc1cccn2c(=O)c(/C=C3\SC(=S)N(CC(C)C)C3=O)c(NCCCOC(C)C)nc12
15% | Cc1nn(-c2ccccc2)c(C)c1/C=N/NC(=O)c1cc(-c2cccc3ccccc23)n[nH]1
4% | O=C(CSc1ncn[nH]1)N1CCCCC1
10% | COc1ccc(CCNC(=O)c2ccc3c(c2)CCN3S(C)(=O)=O)cc1
-6% | COCCOC(=O)C1=C(C)NC(=O)NC1c1c(Cl)nc2ccccn2c1=O (stereo not drawn)
-2% | CCCCOC(=O)c1cc(-c2ccc(/C=N/n3cnnc3)o2)ccc1Cl
5% | COCCN1CCN(C(=O)c2cc(COc3ccc(F)c(F)c3)on2)CC1
13% | COC(=O)C1=C(C)NC(C)=C(C(=O)OCCSc2ccccc2)[C@@H]1C
-13% | CCc1n(CC(O)COCC2CC=CCC2)c2ccccc2[n+]1C (stereo not drawn)
8% | O=C(O)c1cc(S(=O)(=O)N2CCN(S(=O)(=O)c3ccccc3)CC2)ccc1Cl
1% | COc1ccc(N/C(=N/c2nc(C)cc(C)n2)NC(=O)c2ccccc2)cc1
3% | Cc1cc(=O)oc2cc(O)cc(OCc3ccccc3)c12
-8% | CC(C)COc1cccc(-c2cc(C(=O)Nc3ccon3)c3ccccc3n2)c1

# Three entries from above, ordered by their value in VDR inh, lowest first.
Structure,VDR inh
Cc1ccc(NC(=O)CNC(=O)Cn2cnc3sc(C)c(C)c3c2=O)cc1F,-4%
O=C(CSc1ncn[nH]1)N1CCCCC1,4%
Cc1cc2cc(CNC(=S)NC3CCCCC3)ccc2[nH]1,12%

# A few values from the entries so far:
# `CC(C)COc1cccc(-c2cc(C(=O)Nc3ccon3)c3ccccc3n2)c1` in VDR inh → -8%
# `CCc1n(CC(O)COCC2CC=CCC2)c2ccccc2[n+]1C` (stereo not drawn) in VDR inh → -13%
# `O=C(CSc1ncn[nH]1)N1CCCCC1` in VDR inh → 4%
# `COc1cc2c(=O)n(Cc3ccco3)c(=O)n(CC(=O)Nc3ccc(F)cc3)c2cc1OC` in VDR inh → -14%

# The listing picks up with the 2 entries that preceded the break.
VDR inh | compound
3% | Cc1cc(=O)oc2cc(O)cc(OCc3ccccc3)c12
-8% | CC(C)COc1cccc(-c2cc(C(=O)Nc3ccon3)c3ccccc3n2)c1
-6% | COc1ccc2nc(SCC(=O)NC(C)C)[nH]c2c1
8% | CNS(=O)(=O)c1cccc(C(=O)OCC(=O)N2c3ccccc3NC(=O)C2(C)C)c1
? | CCOCCCNC1=C(Cl)C(=O)c2ccccc2C1=O
-12% | COc1ccc(NC2CCCN(C(=O)c3ccc(C(C)=O)cc3)C2)cc1 (stereo not drawn)
-1%&-9% | CCCCN(C)CCCNC(=O)c1cn(CC)c2ccc(S(=O)(=O)N3CCc4ccccc4C3)cc2c1=O
-12% | CC(C)CCCN1C(Nc2ccccc2)=NC[C@@H]1Cc1ccccc1
7% | CCOc1ccc(S(=O)(=O)N(CC(=O)N/N=C/c2cccs2)c2ccc(C)cc2)cc1
0% | CCOC(=O)Cn1nnnc1C
-11% | CC(=O)C1=C(C)NC(SCC(=O)Nc2nccs2)=C(C#N)C1c1ccccc1Cl (stereo not drawn)
8% | Cc1[nH]c2ccccc2c1C(=O)COC(=O)c1c(-c2ccccc2)noc1C
2% | Oc1[nH]c2ccccc2c1N=Nc1ccc(C(F)(F)F)cn1
13% | COc1ccccc1/C=C/C(=O)OCC(=O)NC1CC1
-10% | CCOc1cccc(CN2CCCC(N3CCc4cc(OC)c(OC)cc4C3)C2)c1O (stereo not drawn)
15% | C=CCNC(=O)NC(=O)COC(=O)/C(C#N)=C/c1cc(C)n(CC(C)C)c1C
3% | COCCCn1c(=S)[nH]c2c(sc3ccccc32)c1=O

# The results go on:
VDR inh | compound
-6% | Cc1ccc(C(NC(=O)CN2C(=O)NC3(CCCC3)C2=O)c2ccccc2)cc1 (stereo not drawn)
4% | COC(=O)c1cc(S(=O)(=O)n2nc(C)cc2C)c(Cl)cc1Cl
4% | Cc1ccc(Nc2nc(-c3ccc(O)cc3O)cs2)nc1
1% | CN(Cc1cccs1)C(=O)c1ccc(Cl)c(S(=O)(=O)N2CCCCCC2)c1
2% | COc1cc(OC)c(NC(=O)c2ccc3c(Cl)c4c(nc3c2)CCCC4)cc1Cl
-9% | O=P(O)(CP(=O)(c1ccccc1)c1ccccc1)c1ccccc1
4% | Cc1c(C(=O)c2ccc(Cl)cc2[N+](=O)[O-])c2ccccn2c1CCC#N
16% | COc1ccc(S(=O)(=O)N(CCc2ccccc2)CC(=O)N2CCOCC2)cc1
-2% | CCCCN(C)CCCNC(=O)c1cc(-c2ccc(Br)s2)nc2ccccc12
-11% | O=C(CN1CCN(S(=O)(=O)c2ccc(F)cc2)CC1)N1CCOCC1
4%&-5% | CCC(=O)Nc1cc2nn(-c3ccc(C)cc3)nc2cc1C
6% | COc1ccc(F)cc1CN1CCN(c2ncnc3scc(-c4ccccc4)c23)CC1
-18% | CC[C@]12c3[nH]c4ccc(OC)cc4c3CCN1C(=O)C(CC(=O)NCCCn1ccnc1)C[C@@H]2C(=O)N1CCN(C(=O)C2CC2)CC1 (stereo partly drawn)
-9% | COc1cc(/C=N/Nc2nc(C)cc(C)n2)cc(OC)c1OC
-1% | CC(NC(=O)Cc1ccccc1)c1nc2ccccc2[nH]1 (stereo not drawn)

# Further results:
VDR inh | compound
4% | Cc1c(Cl)ccc2sc(NC(=O)C3CC3)nc12
11% | CC(=O)c1cccc(NC(=O)CCCN(C)S(=O)(=O)c2ccc(F)cc2)c1
13% | Cc1nn(CC(=O)NC2(C)CCS(=O)(=O)C2)c(C)c1S(=O)(=O)N(C)C (stereo not drawn)
15% | CC(C)CNC(=O)/C=C/c1cccs1
-14% | Cc1ccccc1Sc1ccc([N+](=O)[O-])cn1
-12% | CC(C)c1ccc(/C=C/C(=O)Nc2nc3ccc([N+](=O)[O-])cc3s2)cc1
-17% | COc1ccc(CN(Cc2ccccc2)C(=O)c2ccncc2)cc1COc1ccc(NC(C)=O)cc1
1% | O=C(CN1CCN(c2ccc(O)cc2)CC1)Nc1ccc(S(=O)(=O)N2CCCC2)cc1
-4% | O=C(NN1CCOCC1)c1cc(-c2cccs2)nc2ccccc12
8% | CCOc1ccc(OCc2ccc(C(=O)OCc3ccccn3)o2)cc1
-20% | COC(=O)c1nc(NC(=O)c2ccccc2)n[nH]1
-2% | Cc1ccc(CNC(=O)c2cccnc2Sc2cccc(Cl)c2)cc1
2% | CCOc1ccccc1-c1cc(-c2ccc(OC)cc2)nc2c1c(=O)n(C)c(=O)n2C
41%[activator] | CCCc1cc(=O)[nH]c(NCc2ccc(Cl)cc2)n1
7% | CC(=O)Nc1ccc(NC(=O)C/C(C)=N/NC(N)=S)cc1

# Additional records.
VDR inh | compound
26% | CC(=O)Nc1nc2n(n1)C(c1ccc(Cl)cc1)C=C(C)N2 (stereo not drawn)
3% | O=C1C2CC=CCC2C(=O)N1Cc1ccccc1Cl (stereo not drawn)
6% | Cc1ccc(CCNC(=O)c2cc(C)nn2-c2ccccc2)cc1
15% | CC(=O)Nc1c(C)cc(S(C)(=O)=O)cc1C
3% | N#C/C(=C/c1cn(CC(=O)O)c2ccccc12)C(=O)NCc1ccccc1
-1% | O=c1[nH]c(=O)c2cn[nH]c2[nH]1
1% | CCCCn1c(N)c(N(CCOC)C(=O)c2cc3c(s2)CCC3)c(=O)[nH]c1=O
-9% | O=C(O)c1ccc(NC(=O)c2cccc(C(=O)Nc3ccc(C(=O)O)cc3)n2)cc1

# High-throughput results as filed in PubChem BioAssay.
